Source: PubChem
Yeast UUG start: alters start codon recognition fidelity in yeast; S. cerevisiae UUG-firefly luciferase reporter, luminescence/redox ratio; activity score, % at 18.7 µM; 0.13% of 350,000 active; AID 602363;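 active means replicate mean at a twofold rise or more, about +100% in these data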;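 further: firefly luciferase made from a UUG start codon reports start codon fidelity; reporter light over untreated wells divided by growth signal over untreated wells; some hits fall short of that in this replicate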
Env fusion inh: blocks HIV Env-driven cell-cell fusion; HeLa-JRFL Env/CEM21 cell fusion, luciferase; inhibition, % at 12.3 µM; 1.1% of 360,000 active;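 active means mean replicate inhibition score of at least 50 and every replicate individually at or above 50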;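 further: 0% = plate neutral controls and 100% = maraviroc near 300 nM; one replicate is shown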
Numbers without * were called inactive; [ ] = dose if it differs, or a comment.

Yeast UUG start	Env fusion inh	smiles
-8.4	15.8[16.7 µM]	C[C@@H]1CN([C@H](C)CO)C(=O)c2cc(C#Cc3cccnc3)cnc2O[C@H]1CN(C)Cc1ccccc1
8.8	22.7[16.7 µM]	COCC(=O)Nc1ccc2c(c1)C(=O)N(C)[C@H]1CC[C@H](CC(=O)NCc3ccccc3Cl)O[C@H]1CO2
11.0	-9.0[16.7 µM]	Cc1noc(C)c1NC(=O)Nc1ccc2c(c1)CC(=O)N([C@H](C)CO)C[C@H](C)[C@@H](CN(C)S(=O)(=O)c1ccccc1)O2
13.5	-23.3[16.7 µM]	COc1ccc(CN(C)C[C@H]2OCCCC[C@H](C)Oc3ccc(NC(=O)Nc4cccc5ccccc45)cc3C(=O)N([C@H](C)CO)C[C@@H]2C)cc1
-11.1	-1.0[16.7 µM]	C[C@H](CO)N1C[C@H](C)[C@@H](CN(C)S(=O)(=O)c2ccccc2)Oc2ccc(NS(=O)(=O)c3ccc(Cl)cc3)cc2C1=O
28.4	-28.0[16.7 µM]	C[C@@H]1CN([C@H](C)CO)C(=O)c2cc(C#CC3CCCCC3)cnc2O[C@H]1CN(C)C(=O)NC1CCCC1
-29.3	-45.6[16.7 µM]	Cc1ccc(S(=O)(=O)Nc2ccc3c(c2)C(=O)N([C@@H](C)CO)C[C@H](C)[C@@H](CN(C)S(=O)(=O)c2ccc(C)cc2)OCCCC[C@H](C)O3)cc1
-9.7	56.5*[16.7 µM]	C[C@@H]1CN([C@@H](C)CO)C(=O)Cc2cc(NC(=O)Nc3ccc(C(F)(F)F)cc3)ccc2O[C@H]1CN(C)Cc1ccc(C(F)(F)F)cc1
22.3	28.3[16.7 µM]	CC(=O)N(C)C[C@H]1Oc2cc(-c3cccc(F)c3)ccc2S(=O)(=O)N([C@H](C)CO)C[C@@H]1C
-30.1	-0.7[16.7 µM]	C[C@H]1CN([C@@H](C)CO)C(=O)Cc2cc(NS(=O)(=O)c3cn(C)cn3)ccc2O[C@@H]1CN(C)Cc1ccc2c(c1)OCO2
-4.2	-4.3[16.7 µM]	C[C@H](NC(=O)C[C@H]1C=C[C@H](NC(=O)c2cccnc2)[C@@H](CO)O1)c1ccccc1
-11.2	-7.5[16.7 µM]	COc1ccc(S(=O)(=O)N[C@H]2C=C[C@@H](CC(=O)O)O[C@@H]2CO)cc1
-9.8	-12.3[16.7 µM]	C[C@H]1CN([C@@H](C)CO)S(=O)(=O)c2ccc(C#CC3(O)CCCC3)cc2O[C@H]1CN(C)C
2.5	-44.2[16.7 µM]	C[C@H]1CN([C@@H](C)CO)C(=O)c2cc(C3=CCCC3)cnc2O[C@@H]1CN(C)C(=O)Nc1cccc(F)c1
0.0	-1.5[16.7 µM]	C[C@@H]1CCCCO[C@@H](CN(C)C(=O)Nc2cccc3ccccc23)[C@H](C)CN([C@H](C)CO)C(=O)c2cc(NS(=O)(=O)c3cn(C)cn3)ccc2O1
15.4	-12.4[16.7 µM]	Cc1cc(C(=O)Nc2cccc3c2O[C@H](CN(C)Cc2ccc4c(c2)OCO4)[C@@H](C)CN([C@H](C)CO)C3=O)n(C)n1
-0.2	-61.4[16.7 µM]	C[C@@H]1CN([C@H](C)CO)C(=O)c2cc(-c3cccc(C#N)c3)cnc2O[C@@H]1CN(C)C(=O)C1CCC1
12.5	-2.2[16.7 µM]	C[C@@H]1CCCCO[C@@H](CN(C)Cc2ccc(Cl)c(Cl)c2)[C@@H](C)CN([C@H](C)CO)C(=O)c2cc(NC(=O)c3ccncc3)ccc2O1
-6.0	-7.1[16.7 µM]	C[C@H]1CN([C@@H](C)CO)C(=O)Cc2cc(NC(=O)Nc3ccc(C(F)(F)F)cc3)ccc2O[C@@H]1CN(C)S(=O)(=O)c1cccs1
-3.9	4.8[16.7 µM]	CNC(=O)C[C@@H]1CC[C@@H]2[C@H](COc3ccc(NC(=O)c4ccc(OC)cc4)cc3C(=O)N2C)O1
9.6	11.4[16.7 µM]	COc1ccc(S(=O)(=O)N(C)C[C@H]2OCCCC[C@H](C)Oc3ccc(NC(=O)Nc4c(C)noc4C)cc3C(=O)N([C@@H](C)CO)C[C@H]2C)cc1
-0.7	-21.3[16.7 µM]	COc1ccc(S(=O)(=O)Nc2ccc3c(c2)CC(=O)N([C@@H](C)CO)C[C@@H](C)[C@H](CN(C)S(=O)(=O)c2ccc(F)cc2)O3)cc1
-4.4	-13.2[16.7 µM]	Cc1noc(C)c1NC(=O)Nc1ccc2c(c1)C(=O)N([C@@H](C)CO)C[C@@H](C)[C@@H](CN(C)Cc1ccc(C(=O)O)cc1)OCCCC[C@H](C)O2
9.9	-7.8[16.7 µM]	C[C@@H]1CCCCO[C@@H](CN(C)C(=O)CCC(F)(F)F)[C@H](C)CN([C@H](C)CO)C(=O)c2cc(NS(C)(=O)=O)ccc2O1
-4.6	-31.3[16.7 µM]	C[C@H]1CCCCO[C@@H](CN(C)C(=O)Nc2ccccc2)[C@@H](C)CN([C@@H](C)CO)C(=O)c2cc(NC(=O)Nc3cccc4ccccc34)ccc2O1
1.2	6.5[16.7 µM]	C[C@@H]1CN([C@@H](C)CO)S(=O)(=O)c2ccc(C#Cc3ccccn3)cc2O[C@H]1CN(C)Cc1ccccc1
18.6	1.8[16.7 µM]	Cc1ccc(S(=O)(=O)N(C)C[C@@H]2OCCCC[C@H](C)Oc3ccc(NC(=O)Nc4ccc5c(c4)OCO5)cc3C(=O)N([C@H](C)CO)C[C@@H]2C)cc1
2.9	-13.9[16.7 µM]	COc1cccc(S(=O)(=O)Nc2ccc3c(c2)[C@@H]2C[C@@H](CC(=O)N[C@@H](C)c4ccccc4)O[C@@H](CO)[C@@H]2O3)c1
-8.8	-0.3[16.7 µM]	Cc1noc(C)c1NC(=O)Nc1ccc2c(c1)C(=O)N([C@H](C)CO)C[C@H](C)[C@@H](CN(C)Cc1ccncc1)OCCCC[C@H](C)O2
-2.1	-29.8[16.7 µM]	C[C@@H]1CN([C@@H](C)CO)C(=O)c2cc(NS(=O)(=O)c3ccccc3)ccc2O[C@@H]1CN(C)Cc1ccc(C(=O)Nc2ccccc2N)cc1

Next section (2 carried over from the part before).
Yeast UUG start	Env fusion inh	smiles
-8.8	-0.3[16.7 µM]	Cc1noc(C)c1NC(=O)Nc1ccc2c(c1)C(=O)N([C@H](C)CO)C[C@H](C)[C@@H](CN(C)Cc1ccncc1)OCCCC[C@H](C)O2
-2.1	-29.8[16.7 µM]	C[C@@H]1CN([C@@H](C)CO)C(=O)c2cc(NS(=O)(=O)c3ccccc3)ccc2O[C@@H]1CN(C)Cc1ccc(C(=O)Nc2ccccc2N)cc1
2.2	-7.0[16.7 µM]	C[C@@H]1CN([C@H](C)CO)S(=O)(=O)c2ccc(C3=CCCC3)cc2O[C@@H]1CN(C)C(=O)CN(C)C
4.7	1.5[16.7 µM]	CCS(=O)(=O)Nc1ccc2c(c1)C(=O)N(C)C[C@H](OC)[C@@H](C)CN(C(=O)COC)[C@@H](C)CO2
-0.8	-1.9[16.7 µM]	CO[C@@H]1CN(C)C(=O)c2ccc(NC(C)=O)cc2OC[C@H](C)N(C(=O)c2ccc(F)cc2)C[C@@H]1C
0.7	3.9[16.7 µM]	CC(C)CC#Cc1cnc2c(c1)C(=O)N([C@H](C)CO)C[C@H](C)[C@H](CN(C)Cc1cccc(F)c1)O2
10.4	19.3[16.7 µM]	CCNC(=O)Nc1ccc2c(c1)C(=O)N(C)[C@H]1CC[C@@H](CC(=O)NCC3CC3)O[C@H]1CO2
-12.4	14.0[16.7 µM]	O=C(Nc1ccc(F)cc1)N[C@H]1CC[C@@H](CCNS(=O)(=O)c2ccccc2F)O[C@H]1CO
-1.5	7.2[16.7 µM]	CC(C)NC(=O)N(C)C[C@@H]1Oc2ccc(NC(=O)Nc3cccc4ccccc34)cc2CC(=O)N([C@H](C)CO)C[C@H]1C
-7.7	-15.4[16.7 µM]	CN1CCN(C(=O)C[C@@H]2CC[C@H]3[C@@H](COC[C@@H](O)CN3C(=O)c3ccccc3F)O2)CC1
25.2	14.6[16.7 µM]	C[C@@H]1CN([C@@H](C)CO)C(=O)Cc2cc(NC(=O)Nc3cccc4ccccc34)ccc2O[C@H]1CN(C)C(=O)Nc1ccc(F)cc1
2.5	-3.6[16.7 µM]	C[C@@H]1CN([C@H](C)CO)C(=O)c2cc(NC(=O)Nc3ccc4c(c3)OCO4)ccc2O[C@H]1CN(C)Cc1ccc2c(c1)OCO2
-7.8	-2.9[16.7 µM]	C[C@@H](O)C#Cc1cnc2c(c1)C(=O)N([C@@H](C)CO)C[C@H](C)[C@@H](CN(C)C(=O)c1ccncc1)O2
17.2	15.9[16.7 µM]	Cc1noc(C)c1S(=O)(=O)Nc1ccc2c(c1)C(=O)N([C@@H](C)CO)C[C@H](C)[C@@H](CN(C)CC1CCCCC1)OCCCC[C@H](C)O2
-9.4	-15.5[16.7 µM]	O=C(Nc1cccc(Cl)c1)N[C@@H]1CC[C@H](CCNC(=O)C2CCC2)O[C@H]1CO
-13.1	3.1[16.7 µM]	COc1ccc(-c2cn(CC[C@H]3CC[C@H](N)[C@@H](CO)O3)nn2)cc1
-16.5	-1.9[16.7 µM]	O=C(N[C@H]1CC[C@H](CC(=O)N2CCc3ccccc3C2)O[C@@H]1CO)C1CCC1
13.4	6.2[16.7 µM]	Cc1noc(C)c1NC(=O)Nc1ccc2c(c1)C(=O)N([C@H](C)CO)C[C@H](C)[C@@H](CN(C)C(=O)Nc1cccc3ccccc13)OCCCC[C@H](C)O2
-0.1	-8.9[16.7 µM]	COCC(=O)N(C)C[C@@H]1Oc2ncc(C3=CCCC3)cc2C(=O)N([C@H](C)CO)C[C@H]1C
-7.4	2.4[16.7 µM]	O=C(Cc1cccnc1)N[C@@H]1CC[C@H](CCn2cc(-c3ccccc3F)nn2)O[C@H]1CO
-5.7	6.0[16.7 µM]	C[C@H]1CN([C@@H](C)CO)C(=O)c2cccc(NC(=O)c3cnccn3)c2O[C@@H]1CN(C)C(=O)NC1CCCCC1
6.6	20.3[16.7 µM]	C[C@H](CO)N1C[C@H](C)[C@@H](CN(C)C(=O)C2CCCCC2)Oc2cc(-c3ccc(F)cc3)ccc2S1(=O)=O
3.2	-26.8[16.7 µM]	COc1ccc(S(=O)(=O)Nc2ccc3c(c2)CC(=O)N([C@@H](C)CO)C[C@@H](C)[C@@H](CN(C)C(=O)Nc2ccc(F)cc2)O3)cc1
5.6	19.9[16.7 µM]	C[C@@H]1CCCCO[C@H](CN(C)Cc2ccc3c(c2)OCO3)[C@H](C)CN([C@H](C)CO)C(=O)c2cc(NC(=O)c3ccncc3)ccc2O1
10.7	25.6[16.7 µM]	COC(=O)C(CC#Cc1ccc2c(c1)[C@]1(C(=O)N2)[C@H](c2ccccc2OCCO)N2[C@H](c3ccccc3)[C@H](c3ccccc3)OC(=O)[C@H]2[C@@H]1C(=O)NC[C@H](O)c1ccccc1)C(=O)OC
-23.8	10.2[16.7 µM]	C[C@@H]1CN([C@H](C)CO)C(=O)c2cc(C#Cc3cccc(F)c3)cnc2O[C@@H]1CN(C)C(=O)C1CCCCC1
-4.5	12.1[16.7 µM]	Cc1ccc(S(=O)(=O)N[C@@H]2CC[C@H](CCn3cc(C(C)C)nn3)O[C@H]2CO)cc1
-3.8	14.7[16.7 µM]	CNC(=O)C[C@H]1CC[C@H]2[C@@H](COc3ccc(NS(=O)(=O)c4ccc(F)cc4)cc3C(=O)N2C)O1
-12.6	-5.4[16.7 µM]	CNC(=O)C[C@H]1CC[C@@H]2[C@@H](COc3ccc(NS(=O)(=O)c4cccc(F)c4)cc3C(=O)N2C)O1
-8.0	-0.2[16.7 µM]	O=C(C[C@H]1C[C@H]2c3cc(NC(=O)C4CCC4)ccc3O[C@H]2[C@@H](CO)O1)NCc1ccncc1
-3.6	83.1*[16.7 µM]	O=C(Nc1ccc(F)cc1)Nc1ccc2c(c1)[C@H]1C[C@@H](CC(=O)N3CCCCC3)O[C@H](CO)[C@H]1O2
0.2	1.4[16.7 µM]	Cc1ccc(-c2cnc3c(c2)C(=O)N([C@H](C)CO)C[C@H](C)[C@@H](CN(C)C(=O)c2ccccc2)O3)cc1
-3.0	5.8[16.7 µM]	C[C@H]1CN([C@@H](C)CO)C(=O)Cc2cc(N(C)C)ccc2O[C@@H]1CN(C)C(=O)NC1CCCCC1
-17.8	-56.5[16.7 µM]	COc1ccc(S(=O)(=O)Nc2ccc3c(c2)C(=O)N([C@@H](C)CO)C[C@@H](C)[C@@H](CN(C)S(=O)(=O)c2ccc(OC)cc2)OCCCC[C@@H](C)O3)cc1
14.1	-44.4[16.7 µM]	Cc1ccc(S(=O)(=O)Nc2ccc3c(c2)C(=O)N([C@@H](C)CO)C[C@H](C)[C@@H](CN(C)Cc2ccncc2)OCCCC[C@H](C)O3)cc1
0.0	-5.8[16.7 µM]	C[C@@H]1CCCCO[C@@H](CN(C)S(=O)(=O)c2ccc(F)cc2)[C@@H](C)CN([C@@H](C)CO)C(=O)c2cc(NC(=O)Nc3ccc4c(c3)OCO4)ccc2O1
-1.3	12.0[16.7 µM]	COc1ccc(NC(=O)N(C)C[C@@H]2Oc3ccc(NC(=O)Nc4c(C)noc4C)cc3CC(=O)N([C@@H](C)CO)C[C@H]2C)cc1

Full records, quoted from the list.
C[C@@H]1CCCCO[C@@H](CN(C)S(=O)(=O)c2ccc(F)cc2)[C@@H](C)CN([C@@H](C)CO)C(=O)c2cc(NC(=O)Nc3ccc4c(c3)OCO4)ccc2O1 across the screens: Yeast UUG start = 0.0; Env fusion inh = -5.8[16.7 µM]
COc1ccc(S(=O)(=O)Nc2ccc3c(c2)C(=O)N([C@@H](C)CO)C[C@@H](C)[C@@H](CN(C)S(=O)(=O)c2ccc(OC)cc2)OCCCC[C@@H](C)O3)cc1 across the screens: Yeast UUG start = -17.8; Env fusion inh = -56.5[16.7 µM]

Some of the compounds tested; count on the stated rates, not on these rows.
